eIF4H inh – inhibitors of RNA binding by human eIF4H; Q15056; eIF4H fluorescence polarization binding assay; inhibition, % at 35 µM; actives 0.94% (n = 290,000); AID 2012;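 active = 50% or more with normal probe brightness, or confirmed in later tests; inconclusive = above 50% with abnormal brightness, or retests that disagree; inactive = below 50% or failed in later tests; about a fifth of its hits are not listed in these tables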;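 note: calls also rest on retests at 20 µM and on dose response follow-up; 0% = protein and probe with vehicle and 100% = probe without protein; strong numbers were not always called active; many hits fall short of the cut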
PABP FP inh – blocks human PABP binding to poly(A) RNA | inhibition, % at 35 µM | P11940 | fluorescence polarization | actives 1% (n = 290,000);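 active = 50% or more with normal probe brightness, or confirmed in later tests; inconclusive = above 50% with abnormal brightness, or retests that disagree; inactive = below 50% or failed in later tests; about a fifth of its hits are not listed in these tables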;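 note: calls also rest on retests at 20 µM and on dose response follow-up; controls were probe without protein and protein plus probe with vehicle; some compounds called inactive have numbers as strong as hits; many hits fall short of the cut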
Yeast UUG start – yeast start codon fidelity modulation. S. cerevisiae UUG-firefly luciferase reporter, luminescence/redox ratio. activity score, % at 18.7 µM. actives 0.13% (n = 350,000). AID 602363;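 active = replicate mean at a twofold rise or more, about +100% in these data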;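 note: firefly luciferase made from a UUG start codon reports start codon fidelity; reporter light over untreated wells divided by growth signal over untreated wells; some hits fall short of that in this replicate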
CSC inhib – blocks cancer stem cells. cancer stem cell-like cells viability, luminescence. inhibition, % at 7.5 µM. actives 1.1% (n = 300,000);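 active = mean at 75% or more and at least half the replicates too; inconclusive = mean and replicates disagree; tested in HMLE shEcad cells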;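 note: 0% = median of negative and 100% = median of positive control wells; the first replicate is given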
Env fusion inh – HIV envelope-mediated fusion inhibition. HeLa-JRFL Env/CEM21 cell fusion, luciferase. inhibition, % at 12.3 µM. actives 1.1% (n = 360,000);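 active = mean replicate inhibition score of at least 50 and every replicate individually at or above 50; inconclusive = only one of the two criteria met; inactive = mean below 50 and not all replicates reaching 50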;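 note: 0% = plate neutral controls and 100% = maraviroc near 300 nM; one replicate is shown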
Rce1 inhib – blocks yeast Ras-converting enzyme; calls only; actives 0.27% (n = 290,000); yeast membranes, quenched prenylated peptide cleavage fluorescence;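 active = fall in fluorescence gain of 50% or more versus controls, with final raw signal at or below 3038400; inconclusive = same 50% fall but final raw signal above 3038400; inactive = fall in fluorescence gain under 50%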;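 note: plate controls were neutral control wells for no effect and wells lacking membranes for full effect; tested at 10 µM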
Target sequence (Q03530 whole entry, looked up): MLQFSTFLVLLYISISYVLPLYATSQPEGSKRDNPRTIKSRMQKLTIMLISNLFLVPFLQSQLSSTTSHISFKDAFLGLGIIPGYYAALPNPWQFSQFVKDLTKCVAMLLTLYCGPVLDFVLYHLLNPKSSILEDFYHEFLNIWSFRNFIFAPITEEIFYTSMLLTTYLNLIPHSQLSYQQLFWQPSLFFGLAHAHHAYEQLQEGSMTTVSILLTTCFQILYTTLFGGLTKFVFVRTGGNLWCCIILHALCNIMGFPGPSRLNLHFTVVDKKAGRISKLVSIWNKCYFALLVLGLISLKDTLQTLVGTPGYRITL
MT1-MMP act inh – inhibitors of human MT1-MMP activation | AID 651647 | HT1080 RFP-PRO-GFP cells, GFP/RFP ratio fluorescence, overnight; percent of plate control window, DMSO zero | actives 0.061% (n = 360,000) | GFP/RFP ratio change, % at 20 µM;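 active = GFP/RFP ratio change of at least 30% with cell ATP level not reduced by more than half and red fluorescence within 50% of control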; note: strong numbers were not always called active
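Assay system – RFP-PRO-GFP reporter HT1080 cells · Compound dosing – single dose of 20 µM compound, 1% DMSO final · Incubation – overnight compound exposure at 37 °C · Measure – GFP/RFP fluorescence ratio · Benchmarks – DMSO wells and RFP-L50D-GFP cells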
eIF4H inh retest – recorded beside eIF4H inh, whose call it bears; inhibition, %; compound at 20 µM; confirmation average;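 mean of two retest wells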
PABP FP inh retest – second read-out of PABP FP inh, no call of its own (marks repeat the call); inhibition, %; compound at 20 µM; confirmation repeats;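 mean of two retest wells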
MT1-MMP act inh RFP – further read-out of MT1-MMP act inh, marked with its call; RFP signal change, %; measured here: RFP expression control read;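 0 = vehicle wells; hits needed this value within 50% of zero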
* marks the source's active call; other numbers are inactive results; i = inactive; ? = inconclusive; / = not tested or not shown.

Start of the listing, in advance:
SMILES	eIF4H inh	PABP FP inh	Yeast UUG start	CSC inhib	Env fusion inh	Rce1 inhib	MT1-MMP act inh	MT1-MMP act inh RFP	others
CC(=O)c1cccc(-c2csc3ncnc(Sc4nnnn4C)c23)c1	/	/	-23.0	/	-184.6	/	-17.3	-24.1
O=C(Cc1ccccc1)N/N=C/c1cc(Br)c(Br)o1	0.7	6.3	-13.6	2.8	/	i	1.1	4.3

Main list, from the start:
SMILES	eIF4H inh	PABP FP inh	Yeast UUG start	CSC inhib	Env fusion inh	Rce1 inhib	MT1-MMP act inh	MT1-MMP act inh RFP	others
CC(=O)c1cccc(-c2csc3ncnc(Sc4nnnn4C)c23)c1	/	/	-23.0	/	-184.6	/	-17.3	-24.1
O=C(Cc1ccccc1)N/N=C/c1cc(Br)c(Br)o1	0.7	6.3	-13.6	2.8	/	i	1.1	4.3
CC1CC1C(=O)Nc1nc2ccc(S(C)(=O)=O)cc2s1 (stereo unspecified)	-6.0	-3.7	-24.6	-5.1	0.6	/	-6.0	-7.6
CC(NC(=O)COC(=O)Cc1ccc(Cl)cc1)c1ccccc1 (stereo unspecified)	/	/	/	-8.2	-31.9	/	1.1	1.3
Cc1ccc(N2CC(C(=O)Nc3ccc(N(C)C)cc3)CC2=O)cc1C (stereo unspecified)	/	/	-16.3	-6.7	-33.5	i	-18.3	3.7
Cn1cc(/C=N\NC(=O)C2COc3ccccc3O2)c2ccccc21 (stereo unspecified)	-11.3	5.8	/	?	14.4	i	/	/
COc1ccccc1CC(Cc1nc2ccccc2[nH]1)c1nc2ccccc2[nH]1 (stereo unspecified)	-1.2	-7.4	/	/	-22.6	i	1.1	2.5
O=C(Oc1ccc([N+](=O)[O-])cc1)C1CC(=O)N(c2ccc3c(c2)OCCO3)C1 (stereo unspecified)	/	/	-7.8	-3.6	7.6	/	-6.2	3.2
CSc1ncccc1C(=O)Nc1ccc(S(=O)(=O)NC2=NCCCCC2)cc1	0.5	-10.5	14.0	5.4	11.1	i	0.3	-4.8
Cn1c(=O)[nH]c(=O)c2c1nc(N1CCCCC1)n2CCSc1ncccn1	/	/	-17.2	-3.0	9.6	i	1.4	2.3
COc1ccc(CCC(=O)OCC(=O)Nc2ccccc2)cc1	-12.1	2.4	-6.5	-12.2	1.1	i	0.8	1.5
COc1cc2c(cc1OC)C(C)N(S(=O)(=O)c1cn(C)c(C)n1)CC2 (stereo unspecified)	-0.8	0.6	-15.9	-5.2	9.2	i	-1.1	-1.0

Two entries drawn at random from the list so far:
SMILES	eIF4H inh	PABP FP inh	Yeast UUG start	CSC inhib	Env fusion inh	Rce1 inhib	MT1-MMP act inh	MT1-MMP act inh RFP	others
CC1CC1C(=O)Nc1nc2ccc(S(C)(=O)=O)cc2s1 (stereo unspecified)	-6.0	-3.7	-24.6	-5.1	0.6	/	-6.0	-7.6
CC(NC(=O)COC(=O)Cc1ccc(Cl)cc1)c1ccccc1 (stereo unspecified)	/	/	/	-8.2	-31.9	/	1.1	1.3

The list continues:
SMILES	eIF4H inh	PABP FP inh	Yeast UUG start	CSC inhib	Env fusion inh	Rce1 inhib	MT1-MMP act inh	MT1-MMP act inh RFP	others
COc1ccc(Cn2c(=S)[nH]c3cc(OC)c(OC)cc3c2=O)cc1	-2.9	?	-10.2	4.6	-5.5	i	-1.8	-9.6
CCOc1ccc(-c2n[nH]c(C)c2Oc2ccc(OC)cc2)c(O)c1	-0.6	3.2	-16.9	35.2	/	i	4.7	-1.7
Cc1ncc2c(c1OC(=O)c1ccc([N+](=O)[O-])cc1)COC(C)(C)OC2	-5.7	3.3	-0.6	-11.0	/	i	0.6	3.8
COCCNC(=O)C(c1ccc(O)cc1)N(Cc1ccccc1)C(=O)CCC(=O)Nc1ccccn1 (stereo unspecified)	2.0	3.9	-8.2	/	-9.8	i	0.8	1.0
Cc1ccc(C)c(NC(=O)Cn2nc(C(F)(F)F)cc2C2CC2)c1	2.2	10.5	-2.2	-2.9	34.1	i	2.1	1.4
Cc1ccc(SCc2[nH]nc3c2C(c2ccco2)C(C#N)=C(N)O3)cc1 (stereo unspecified)	9.0	4.8	0.4	21.4	/	i	10.8	-1.1
COC(=O)C1=C(C)N(C)C(C)=C(C(=O)OC)C1c1ccccn1	-2.3	-8.8	-14.6	-4.7	/	i	-2.4	3.6
C=CCN1C(=O)C(Cc2ccccc2)SC1=Nc1ccc(C(=O)O)cc1 (stereo unspecified)	-3.1	-0.5	-0.3	-11.2	-20.5	i	8.7	-0.4
CCOc1ccc(NC(=O)CC2C(=O)N(c3ccc(OC)cc3)C(=O)N2CCc2cccs2)cc1 (stereo unspecified)	-14.3	-0.1	/	-12.8	/	i	0.0	-1.3
CN(C)c1ccc(C(CNC(=O)c2ccc(F)cc2)c2c[nH]c3ccccc23)cc1 (stereo unspecified)	-10.9	7.5	0.3	2.9	-8.7	i	-2.2	-2.7
Cc1ccc2[nH]c(=O)c(-c3nc4ccccn4c3NCc3ccco3)cc2c1	9.6	3.2	-5.5	-3.3	-158.3	i	1.4	-0.7
CCCCc1cc(=O)oc2cc(OC3CCCCC3=O)ccc12 (stereo unspecified)	-9.0	7.1	-15.8	-7.0	-2.9	i	-3.3	-2.3
O=C(/C=C/c1ccc(Br)cc1)c1ccco1	-11.4	0.4	/	20.3	-28.0	i	0.2	-2.5
CCn1c(SCC(=O)N(C)CC(=O)Nc2ccc(F)c(F)c2F)nnc1-c1ccco1	-2.5	3.9	-0.3	3.3	-12.1	i	1.4	2.3
O=C(CCC(=O)N1CCCC1)Nc1ccc(Cl)c(Cl)c1	-7.2	0.5	-3.1	-16.9	-7.0	i	5.5	1.5
Cc1ccc([N+](=O)[O-])cc1N/C=C/C(=O)c1ccco1	3.0	-7.4	-9.6	3.6	/	i	-14.8	-5.6
Cc1nn(C(C)C(=O)NCCN2CCCCCC2)c(=O)c2nn(-c3ccccc3)c(C)c12 (stereo unspecified)	2.0	1.0	1.6	0.4	3.8	i	-2.5	2.4
Cc1ccc(N(C(=O)CCC(=O)Nc2cc(C)on2)C(C(=O)NC2CCCC2)c2cccs2)cc1 (stereo unspecified)	-3.9	5.1	17.4	-2.5	-47.5	i	-4.2	-10.6
CCCN1C(=O)SC(CC(=O)Nc2cccc3ccccc23)C1=O (stereo unspecified)	7.9	2.5	7.4	-12.9	/	i	6.6	4.8
Cc1cc(C)nc(SCC(=O)Nc2nonc2N)n1	-4.8	7.8	/	-14.1	-2.1	i	0.7	3.2
Cc1cc(NC(=O)c2ccccc2C)ccc1NC(=O)c1ccccc1Cl	-6.9	4.0	-8.2	-9.2	-4.3	i	0.1	0.1
COc1ccc(Nc2ncc(C(=O)O)c3ccccc23)cc1	9.3	-0.6	-21.2	-9.7	-37.8	i	-4.5	4.4
O=C(CCCCCCN1C(=O)c2ccccc2C1=O)N1CCC(c2ccccc2)C1 (stereo unspecified)	-9.1	-0.8	3.5	-11.4	/	i	0.4	-0.9
Cc1cc(C(=O)NCc2ccco2)sc1C	/	/	-12.4	1.7	/	/	2.9	3.0
COc1ccc(C2(CNC(=O)c3ccc(OCC(C)C)cc3)CCOCC2)cc1	3.1	4.1	11.5	-0.5	-17.9	i	2.7	-2.0
Cc1c(NC(=O)Nc2ccc(Cl)cc2)c(=O)n(-c2ccccc2)n1C	1.9	-7.3	-3.7	/	/	/	4.8	0.9
Cc1ccc2sc(N(CCN(C)C)C(=O)/C=C/c3cccs3)nc2c1C	-10.2	-1.9	-7.5	8.5	-6.9	i	1.6	0.8
CC1CCc2c(sc3nc(CN4CCOCC4)nc(Sc4ccccc4)c23)C1 (stereo unspecified)	1.1	-4.4	-6.9	84.3*	7.6	i	-11.2	-12.9
COc1ccc(C2=Nn3c(nnc3-c3ccccc3F)SC2)cc1OC1CCCC1	/	/	-16.5	82.0*	-78.6	/	2.9	-16.1
CCn1c(=O)c(C(C)=O)nc2ccccc21	-0.9	-4.2	-13.2	5.7	/	i	-5.4	6.3
O=C(Cc1ccccc1)NN1C(=O)C2C3C=CC(C4CC34)C2C1=O (stereo unspecified)	6.0	6.0	-17.4	-8.3	-130.8	i	14.1	5.6
CCCC(=O)N1CCC1(C)C(=O)Nc1ccccc1-c1ccccc1 (stereo unspecified)	/	/	-12.0	/	-23.7	/	0.7	0.9
O=C(O)c1ccc(/C=N/NC(=O)c2ccc(CN3c4cccc5cccc(c45)S3(=O)=O)cc2)cc1	58.7*	17.9	/	9.8	-4.3	i	2.1	-3.6	eIF4H inh retest=80.1*;PABP FP inh retest=19.9
CCCOC(=O)c1ccc(NC(=O)c2ccccc2[N+](=O)[O-])cc1	1.1	8.6	/	-1.5	-13.1	i	1.7	0.3
O=C(NC12CC3CC(CC(C3)C1)C2)c1cccc(OC(F)F)c1	-2.0	16.4	-2.8	-2.9	18.7	i	-0.8	1.5
COc1ccc(CC(=O)OCC(=O)NCCc2ccccc2)cc1OC	-7.3	-0.8	-5.7	-10.3	/	i	0.4	3.7
O=C1C(=O)N(CCN2CCOCC2)C(c2cccnc2)/C1=C(/O)c1ccccc1 (stereo unspecified)	-7.7	-2.9	/	-4.5	/	i	/	/
O=C(O)C1CCN(C(=O)CSc2nc3ccccc3c(=O)n2Cc2ccccc2)CC1	-0.8	1.6	-11.9	-7.4	-20.1	i	5.3	7.0
O=c1c2ccccc2nc(/C=C/c2cccnc2)n1CCc1ccccc1	-5.6	-0.1	-6.3	3.9	21.4	i	-3.5	-12.1
O=C(O)c1cccc(-c2csc(C(O)c3ccc(F)cc3)n2)c1 (stereo unspecified)	/	/	-28.1	/	-25.5	/	2.3	3.9
CN(Cc1cccs1)c1nc(-c2cccnc2)nc2ccccc12	-2.1	1.1	-17.2	31.1	11.3	i	-3.5	-6.2
CC(=O)c1ccc(OCC(=O)Nc2nnc(C3CC3)s2)cc1	/	/	2.8	/	-6.3	/	1.9	-4.9
COc1cc(/C=N/NC(N)=S)ccc1OCC(=O)Nc1ccc(C)cc1	-10.5	-8.7	-22.3	1.2	/	i	8.5	1.8
COc1ccc(OC)c(S(=O)(=O)Nc2cccc3c(O)cccc23)c1	/	/	-12.0	17.2	15.4	i	6.2	4.7
Cc1nc(-c2ccc(F)cc2)c(CC(=O)N(C)CC(=O)Nc2ccccc2C(F)(F)F)s1	/	/	-10.5	-18.6	-2.7	/	0.7	1.6
CCOC(=O)c1c(NC(=O)COC(=O)c2ccccn2)sc(C(=O)N(C)C)c1C	/	/	9.0	6.0	-5.4	i	1.2	8.8
CCOC(=O)c1cnn(-c2ccc(C(C)C)cc2)c1NC(=O)C1CCC1	-14.2	-2.6	13.1	-4.9	/	i	1.8	-0.5
CN(CC(=O)Nc1ccc(F)cc1)C(=O)CNC(=O)C1CCCCC1	/	/	-20.0	/	-9.4	/	2.9	3.1
Cc1nc2ccc(NC(=S)NC(C)C)cc2nc1C	6.1	-7.2	-25.5	-6.5	-81.5	i	2.0	-0.8
CCCc1cc(CNC(=O)C2CCC(=O)N(CCc3cccc(F)c3)C2)on1 (stereo unspecified)	-10.5	-4.1	6.1	-3.7	-2.3	i	1.0	3.0
COc1ccc2c([N+](=O)[O-])c(N3CCOCC3)[nH]c2c1	/	/	-13.8	/	-3.8	/	5.2	2.4
COc1ccccc1-n1cnc(N)c1C(C)=O	0.5	4.1	-24.2	0.9	/	i	-2.9	0.6
CCOC(=O)C1=C[C@@H](C(C)(C)C)N(S(=O)(=O)c2ccc(C)cc2)[C@H]1c1ccccc1	/	/	-11.6	/	43.6	/	-12.6	-28.8

Screening results as filed in PubChem.
